Insulin prom inh = inhibitors of insulin promoter-driven GFP, primary screen, imaging, TRM-6 cells (human fetal islet line), eGFP reporter, cell count; reporter expression induced with tamoxifen; inhibition, % at 2 µM; 130,000 tested, 0.9% active; AID 1273, 2008;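 active means inhibition above the mean plus 3 SD, with well images judged a real hit on visual review, cut at about 60% in these data, passing the limit was not always enough; inconclusive means inhibition over the cutoff but images rejected on review; inactive means inhibition not above the cutoff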
GALR2 ag = GALR2 receptor agonists, primary screen, cell-based | Galanin receptor type 2 (Homo sapiens), O43603 | GALR2-expressing cells, agonist activation read-out | activation, %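 (tested at 5 µM)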 | 140,000 tested, 0.48% active | AID 803, 2007;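 active means above mean plus 3 SD of all compounds, about 5% in these data, not always enough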;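 further: 0% = vehicle buffer wells and 100% = reference agonist at full effect; tested in CHO reporter cells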
HSV augment = enhancers of HSV replication in host cells, fold increase, host cell viability. HSV replication augmentation in cells. maximum fold increase. 220,000 tested, 0.005% active. AID 1956, 2009;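 active means peak rise of 1.5-fold or more in the series; inconclusive means self-fluorescent or not available for retest; tested in PC3 cells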;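 further: first round at 10 µM; read as green reporter fluorescence; hits show the peak of a series up to 25 µM; 1 = signal of infected wells without compound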
RGS16-Gao HTS = modulators of RGS16 binding to Galphao, primary screen, biochemical, human proteins, multiplexed bead flow cytometry; AID 1441, 2008; Regulator of G-protein signaling 16 (Homo sapiens) + Guanine nucleotide-binding protein …; bead-based flow cytometry RGS16-Galphao binding, fluorescence; actives lie on both sides; binding response (% of control), % at 10 µM; 220,000 tested, 0.38% active;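 active means below 25% or above 175%, edge rows of some plates excepted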;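 further: Galphao activated by GDP with aluminum fluoride before binding; 100% = wells without compound and 0% = beads without RGS; some results beyond the cut were filed as inactive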
PKD1 kinase inh = inhibitors of human PKD1 kinase, biochemical, fluorescence polarization; Serine/threonine-protein kinase D1 (Homo sapiens), Q15139; 200,000 tested, 0.056% active; AID 797, 2007; inhibition, %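 (about 10 µM by stock and volumes)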; PKD1 kinase fluorescence polarization assay;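 active means inhibition of 50% or more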;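 further: controls were vehicle for no effect and a reference inhibitor for full effect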
Target sequence (Q15139 whole entry, looked up): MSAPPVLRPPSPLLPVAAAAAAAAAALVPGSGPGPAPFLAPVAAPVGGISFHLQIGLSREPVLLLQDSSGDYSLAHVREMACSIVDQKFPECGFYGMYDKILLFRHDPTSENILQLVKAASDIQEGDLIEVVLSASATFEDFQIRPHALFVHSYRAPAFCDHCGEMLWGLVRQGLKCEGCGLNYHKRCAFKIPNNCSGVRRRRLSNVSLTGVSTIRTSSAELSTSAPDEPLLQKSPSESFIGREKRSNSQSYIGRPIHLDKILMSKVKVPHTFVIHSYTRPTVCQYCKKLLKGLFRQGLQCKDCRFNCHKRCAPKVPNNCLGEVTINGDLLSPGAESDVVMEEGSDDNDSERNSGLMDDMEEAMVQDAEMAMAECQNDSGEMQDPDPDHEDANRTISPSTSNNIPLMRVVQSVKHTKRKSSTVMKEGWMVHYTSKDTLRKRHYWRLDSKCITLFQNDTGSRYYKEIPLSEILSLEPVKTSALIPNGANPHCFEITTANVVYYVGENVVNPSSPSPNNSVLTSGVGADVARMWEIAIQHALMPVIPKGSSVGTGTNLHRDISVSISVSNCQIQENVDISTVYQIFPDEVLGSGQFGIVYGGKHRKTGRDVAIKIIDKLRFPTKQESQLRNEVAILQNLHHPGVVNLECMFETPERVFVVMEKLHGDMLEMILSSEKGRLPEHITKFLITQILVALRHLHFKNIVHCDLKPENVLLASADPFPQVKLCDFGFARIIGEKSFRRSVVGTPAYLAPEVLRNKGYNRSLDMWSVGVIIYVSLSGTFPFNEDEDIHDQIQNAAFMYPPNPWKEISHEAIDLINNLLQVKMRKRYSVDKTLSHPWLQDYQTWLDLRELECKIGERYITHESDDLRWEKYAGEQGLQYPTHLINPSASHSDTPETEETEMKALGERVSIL
Insulin prom inh cell count = further read-out of Insulin prom inh, marked with its call; normalized cell count, %; measured here: cell count, toxicity; reference of the scale not given here;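 cells exposed to compound for 48 h; stained nuclei by imaging scaled within each plate; lower means fewer cells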
HSV augment primary fold = recorded beside HSV augment, whose call it bears; fold increase; compound at 10 µM; measured here: primary screen fold increase 10 uM; tested in PC3 cells;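 GFP signal in the first replicate; 1 = infected wells without compound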
Starred values were filed as active, the others as inactive; i = inactive; u = inconclusive; x = not tested or not shown; [ ] = dose if it differs, or a comment.

Start of the listing, in advance:
Below each SMILES: Insulin prom inh | Insulin prom inh cell count | GALR2 ag | HSV augment | HSV augment primary fold | RGS16-Gao HTS | PKD1 kinase inh
CCC(C(=O)NCc1ccco1)N(Cc1cccs1)C(=O)CNS(=O)(=O)c1ccccc1 (stereo unspecified)
  -50 | 75 | -1.2 | i | 0.96 | 89 | -8
CCOC(=O)c1cnc(SCC(=O)NCc2cccs2)nc1N
  -50 | 109 | 0.1 | i | 0.76 | 98 | -7
O=C(O)c1ccc2c(c1)N(Cc1ccccc1)C(=O)c1ccccc1S2
  x | x | x | i | 0.99 | 104 | x
CC(C)(C)n1ncc2c(=O)n(CC(=O)Nc3ccc(Cl)cc3)cnc21
  x | x | 0.1 | i | 0.9 | 100 | 0
O=C(NCc1cccc(Cl)c1)c1ccc2c(c1)SC1=NS(=O)(=O)CCN12
  29 | 73 | x | i | 0.9 | 91 | 3
O=c1oc2ccccc2n1Cc1ccccc1
  36 | 102 | x | i | 0.74 | 104 | 0
CCSc1nnc(NC(=O)Nc2cccc(C)c2)s1
  x | x | x | i | 1 | 100 | x
CC(C)Cn1c(N)c(C(=O)NCCN2CCOCC2)c2nc3ccccc3nc21
  0 | 139 | 3.8 | i | 0.97 | 102 | 4
Cc1cc(C(F)(F)F)nc(NCc2cccnc2)n1
  45 | 174 | 1.0 | i | 0.83 | 101 | -3
OCc1ccccc1NC(=S)Nc1cccnc1
  3 | 103 | -2.4 | i | 0.93 | 102 | -2
COc1ccc(C(=O)NCC2OCCc3ccccc32)cc1 (stereo unspecified)
  -74 | 134 | -0.3 | i | 0.93 | 95 | -9
Cc1ccc(C)c(NC(=O)c2nc(Cl)ccc2Cl)c1
  -17 | 179 | x | i | 0.9 | 104 | 7
COc1ccc(C2=NO[C@@H]3C(=O)N(c4cccc(C)c4C)C(=O)[C@H]23)cc1OC
  -42 | 55 | -0.3 | i | 0.88 | 100 | -5
Cc1cc(/C=C(\C#N)C(=O)NCc2cccs2)c(C)n1-c1ccc([N+](=O)[O-])cc1
  -43 | 98 | -0.6 | i | 0.93 | 97 | -3
O=C1CC(c2ccco2)CC2=C1C=Nc1ccccc1N2 (stereo unspecified)
  0 | 59 | -0.4 | i | 0.87 | 99 | 5

The whole of this part, previewed entries included:
Below each SMILES: Insulin prom inh | Insulin prom inh cell count | GALR2 ag | HSV augment | HSV augment primary fold | RGS16-Gao HTS | PKD1 kinase inh
CCC(C(=O)NCc1ccco1)N(Cc1cccs1)C(=O)CNS(=O)(=O)c1ccccc1 (stereo unspecified)
  -50 | 75 | -1.2 | i | 0.96 | 89 | -8
CCOC(=O)c1cnc(SCC(=O)NCc2cccs2)nc1N
  -50 | 109 | 0.1 | i | 0.76 | 98 | -7
O=C(O)c1ccc2c(c1)N(Cc1ccccc1)C(=O)c1ccccc1S2
  x | x | x | i | 0.99 | 104 | x
CC(C)(C)n1ncc2c(=O)n(CC(=O)Nc3ccc(Cl)cc3)cnc21
  x | x | 0.1 | i | 0.9 | 100 | 0
O=C(NCc1cccc(Cl)c1)c1ccc2c(c1)SC1=NS(=O)(=O)CCN12
  29 | 73 | x | i | 0.9 | 91 | 3
O=c1oc2ccccc2n1Cc1ccccc1
  36 | 102 | x | i | 0.74 | 104 | 0
CCSc1nnc(NC(=O)Nc2cccc(C)c2)s1
  x | x | x | i | 1 | 100 | x
CC(C)Cn1c(N)c(C(=O)NCCN2CCOCC2)c2nc3ccccc3nc21
  0 | 139 | 3.8 | i | 0.97 | 102 | 4
Cc1cc(C(F)(F)F)nc(NCc2cccnc2)n1
  45 | 174 | 1.0 | i | 0.83 | 101 | -3
OCc1ccccc1NC(=S)Nc1cccnc1
  3 | 103 | -2.4 | i | 0.93 | 102 | -2
COc1ccc(C(=O)NCC2OCCc3ccccc32)cc1 (stereo unspecified)
  -74 | 134 | -0.3 | i | 0.93 | 95 | -9
Cc1ccc(C)c(NC(=O)c2nc(Cl)ccc2Cl)c1
  -17 | 179 | x | i | 0.9 | 104 | 7
COc1ccc(C2=NO[C@@H]3C(=O)N(c4cccc(C)c4C)C(=O)[C@H]23)cc1OC
  -42 | 55 | -0.3 | i | 0.88 | 100 | -5
Cc1cc(/C=C(\C#N)C(=O)NCc2cccs2)c(C)n1-c1ccc([N+](=O)[O-])cc1
  -43 | 98 | -0.6 | i | 0.93 | 97 | -3
O=C1CC(c2ccco2)CC2=C1C=Nc1ccccc1N2 (stereo unspecified)
  0 | 59 | -0.4 | i | 0.87 | 99 | 5
COc1ccc(NC(=O)CSc2ccccc2)c([N+](=O)[O-])c1
  33 | 86 | x | i | 0.92 | 108 | 1
CC1CCCCC1NC(=O)COC(=O)c1c2c(nc3ccccc13)/C(=C/c1ccco1)CC2 (stereo unspecified)
  -24 | 149 | 4.8 | i | 1.1 | 97 | -10
CC(=O)c1cccc(NC(=S)NC(=O)CC(C)(C)C)c1
  33 | 51 | -2.1 | i | 1 | 98 | -9
Cc1cc(N=Cc2c(O)n(-c3cccc(Cl)c3)c(=O)c3ccccc23)no1
  -80 | 71 | -1.0 | i | 0.93 | 105 | -8
CCC1(C)Cc2c(sc3nc(SC)nc(N)c23)CO1 (stereo unspecified)
  -51 | 98 | -1.1 | i | 0.95 | 126 | -8
Cc1cccc(C(=O)NCCc2nnc(SCC(=O)Nc3nc(C)cs3)n2C)c1
  -10 | 84 | -0.6 | i | 0.83 | 103 | -2
CC(C)CCNC(=O)Cn1c2c(c(-c3ccccc3Cl)cc1=O)CCC2
  x | x | -4.6 | i | 1.1 | 105 | -1
CC1CN(C(=O)COC(=O)c2c(Cl)cccc2Cl)CC(C)O1 (stereo unspecified)
  21 | 102 | x | i | 0.88 | 99 | 0
O=C(/C=C/c1cc2ccccc2o1)c1ccccc1O
  x | x | x | i | 0.93 | 98 | x
O=C(CCS(=O)(=O)c1ccc(Cl)cc1)OCC(=O)N1CCCCC1
  -26 | 71 | -1.9 | i | 0.94 | 104 | -17
COC(=O)/C=C1\SC(N2CCOCC2)=C(c2ccc(OC)cc2)C1=O
  x | x | x | i | 0.87 | 87 | -3
COC(=O)c1cc(NC(=O)c2ccccc2)c(=O)oc1/C=C/Nc1ccc(Oc2ccccc2)cc1
  i | 99 | x | u | x | 205*[activator] | -9
COCCn1c(C)cc(C(=O)COC(=O)c2n[nH]c3ccccc23)c1C
  16 | 74 | -0.9 | i | 1 | 100 | 10
CC(=O)OC(C(=O)NC1CCCCC1)c1cccc(C)c1 (stereo unspecified)
  0 | 140 | 0.1 | i | 1.1 | 102 | -6
C=CCNC(=S)N/N=C(\C)c1cccc(NC(C)=O)c1
  x | x | x | i | 0.89 | 99 | 5
COc1ccccc1NC(=S)NCC1CCC(CNC(=S)Nc2ccccc2OC)CC1 (stereo unspecified)
  x | x | x | i | 1.3 | 95 | x
CC(=Nc1cccc(C)c1)c1sc2ccccc2c1O
  -11 | 118 | -3.2 | u | x | 110 | 8
Cc1ccc2nc(SCC(=O)Nc3cc(C(C)(C)C)nn3-c3ccccc3)[nH]c2c1
  x | x | -0.5 | i | 0.84 | 103 | 2
O=C(O)c1ccn(Cn2cnc3ccccc32)n1
  -30 | 104 | -1.4 | i | 1.1 | 110 | -9
CCC(=O)N(Cc1cc(=O)[nH]c2ccccc12)c1ccccc1C
  x | x | x | i | 0.96 | 102 | x
CC(=O)N/N=C(\C)c1cccc(C(F)(F)F)c1
  -8 | 156 | x | i | 0.97 | 106 | -7
CN(C)CCn1c(N)nc2ccccc21
  x | x | x | i | 0.94 | 97 | x
Cc1occc1-c1nnc(SCC(=O)c2c[nH]c3ccccc23)n1C
  x | x | -2.9 | i | 1 | 103 | -3
COc1cccc(NC(=O)CSc2nnc(Cc3cccs3)n2-c2ccc(C)cc2)c1
  0 | 54 | 0.3 | i | 0.95 | 107 | -4
COc1ccc(/C=N/NC(=O)c2ccc(NC(=O)c3cccc([N+](=O)[O-])c3)cc2)c(OC)c1
  27 | 126 | x | i | 0.88 | 104 | -6
O=C(Nc1ccc(S(=O)(=O)NC2CCCCC2)cc1)c1ccco1
  -16 | 54 | -0.9 | i | 0.74 | 110 | -10
O=C(Nc1ccc(CN2CCOCC2)cc1)c1ccccc1F
  16 | 110 | -1.8 | i | 0.84 | 80 | -6
COc1ccccc1NC(=O)CSc1nnnn1-c1ccc(C)cc1
  -62 | 113 | -0.9 | i | 0.98 | 104 | 0
O=C(CSc1ncnc2scc(-c3ccccc3)c12)Nc1ccc(C(=O)O)cc1
  x | x | x | i | 0.99 | 108 | x
O=C1C2C3C=CC(C3)C2C(=O)N1c1n[nH]c(-c2cccnc2)n1 (stereo unspecified)
  17 | 30 | -1.0 | i | 1 | 103 | -5
COc1ccc(-c2nc3n(n2)C(=O)CC(c2ccco2)S3)cc1 (stereo unspecified)
  x | x | -0.8 | i | 1.2 | 97 | 0
CC(=O)NS(=O)(=O)c1cccnc1Nc1ccc(Cl)cc1
  17 | 121 | -0.9 | i | 1.2 | 106 | -3
C[C@@]1([C@@H](NC(=O)c2cccs2)c2ccc(-c3ccccc3)cc2)C[C@H]1C1CCCCC1
  25 | 102 | -2.6 | i | 0.97 | 101 | -2
O=c1ccc(Oc2nc(N3CCCCC3)nc(N3CCCCC3)n2)n[nH]1
  x | x | -0.2 | i | 0.9 | 111 | 6
O=C(O)CCC(=O)Nc1ccc(N2CCOCC2)cc1
  x | x | -0.1 | i | 0.96 | 127 | -7
COc1cc(/C=N/n2nnnc2N)cc(OC)c1OC
  x | x | x | i | 0.9 | 104 | x
CCN(CC(=O)NC1CCS(=O)(=O)C1)C(=O)/C=C/c1cccs1 (stereo unspecified)
  -117 | 34 | x | i | 0.93 | 76 | 2
C=CC[n+]1c(C)csc1Nc1ccc(C(=O)O)cc1
  43 | 145 | x | i | 0.98 | 100 | -6
Cc1ccc2c(c1)[C@@H](O)C[C@@H](C)N2N=O
  3 | 79 | 1.2 | i | 0.96 | 75 | 0
CCN(C(=O)COC(=O)/C=C/c1cccc([N+](=O)[O-])c1)c1ccccc1
  x | x | x | i | 0.91 | 102 | 5
CCOc1ccccc1N(CC(=O)NCc1ccccc1)C(=O)CCC(=O)Nc1cc(C)ccn1
  x | x | x | i | 0.99 | 102 | -3
CC(C)n1c2ccccc2c2cc([N+](=O)[O-])ccc21
  17 | 100 | 0.4 | i | 0.92 | 86 | -7
CCCCN(CCCC)CCCNC(=O)CC1Oc2ccc(C)cc2NC1=O (stereo unspecified)
  31 | 62 | -2.7 | i | 1 | 101 | -4
COc1ccc(-c2ccc(CO)o2)cc1N
  x | x | x | i | 0.94 | 103 | -1
CCn1c(=NC(=O)C2COc3ccccc3O2)sc2c(C)ccc(OC)c21 (stereo unspecified)
  x | x | x | i | 0.82 | 100 | x

Next section.
Below each SMILES: Insulin prom inh | Insulin prom inh cell count | GALR2 ag | HSV augment | HSV augment primary fold | RGS16-Gao HTS | PKD1 kinase inh
CC(=O)NC(CCS(C)(=O)=O)C(=O)Nc1ccc2c(c1)OCO2 (stereo unspecified)
  0 | 105 | -1.0 | i | 0.81 | 77 | -3
CCC(C)(C)NC(=O)C(c1cccc(OC)c1)N(C(=O)c1ccn[nH]1)c1cccc(OC)c1 (stereo unspecified)
  0 | 113 | -1.6 | i | 0.94 | 103 | 7
CS(=O)(=O)N(CC(=O)Nc1cc(Cl)ccc1Cl)c1ccccc1
  3 | 66 | -1.2 | i | 0.95 | 99 | 2
COc1ccccc1NC(=O)N1CCN(c2ccnc3cc(Cl)ccc23)CC1
  x | x | x | i | 1.1 | 128 | x
Cc1ccc(/C=N/NC(=S)NCCc2ccccc2)s1
  x | x | x | i | 0.96 | 105 | -7
COC(=O)c1cc(C(=O)OCC(=O)N(C)C2CCS(=O)(=O)C2)cc([N+](=O)[O-])c1 (stereo unspecified)
  42 | 106 | x | i | 0.9 | 100 | -1
O=[N+]([O-])c1ccccc1N/N=C\c1ccccc1F
  x | x | x | i | 0.73 | 100 | x
COC(CNS(=O)(=O)c1ccc(S(=O)(=O)N2CCCC2)cc1)OC
  x | x | x | i | 1 | 105 | -7
COc1ccc(-c2noc(-c3cccc(OC)c3OC)n2)cc1OC
  x | x | -2.2 | i | 0.76 | 104 | -12
Cc1ccc(N2C(=O)C3C(C2=O)C(C(=O)c2ccc(Cl)cc2)N2CCCC32)cc1 (stereo unspecified)
  6 | 123 | -0.8 | i | 1.1 | 90 | 3
COc1cccc(N=c2oc3c(C)ncc(CO)c3cc2C(N)=O)c1
  -21 | 72 | 1.0 | i | 0.85 | 104 | 2
COC(=O)c1cc(C)nc(N)c1C#N
  33 | 86 | 0.7 | i | 0.97 | 100 | 5

Source: PubChem (several laboratories)
